Source: PubChem (SRMLSC)
H5N1 CPE: MDCK cell protection from H5N1 avian flu; cytopathic effect, luminescence, 72 h; stronger effect = higher value; no value below 0 was filed and about half of the inactive calls have no number; reference of the scale not given here; inhibition, % at 50 µM; actives 0.07% (n = 96,000); in the data active means inhibition above about 25%
* hit, by the source's call. Not all compounds are listed (hit frequency here may not be typical).

CCc1nnc(NC(=O)c2ccc(-c3cc(C(F)(F)F)ccc3Cl)o2)s1 was read as H5N1 CPE 1.6.
For O=C(Nc1ncn[nH]1)C(F)(F)C(F)F the results were H5N1 CPE 0.1.
For CCOc1ccc(-c2nc(C#N)c(NCC(C)C)o2)cc1 the results were H5N1 CPE inactive.
`Cc1ccccc1N1C(=O)c2ccccc2N2C(=O)c3ccccc3C12` (configuration not stated) gave H5N1 CPE inactive.
For O=C(/C=C/c1cccc2ccccc12)NCCC1=CCCCC1 the results were H5N1 CPE 1.1.
`Cc1cc(NC(=O)c2sc(Nc3cccc(C(F)(F)F)c3)nc2N)no1` gave H5N1 CPE inactive.
For c1ccc(-c2ccc(-c3cnc4n3CCCCC4)cc2)cc1 the results were H5N1 CPE inactive.
Screening CCn1c(=O)c2cc(S(=O)(=O)NCCOc3ccccc3)ccc2n(CC)c1=O returned H5N1 CPE 0.7.
Screening CCOC(=O)c1ccc(NC(=O)CNC(=O)C2CCCCC2)cc1 returned H5N1 CPE 0.8.
`C=CCSc1nc2ccccc2[nH]1` gave H5N1 CPE inactive.
For COCCOC(=O)C1=C(C)NC2=C(C(=O)CC(c3cccs3)C2)C1c1ccsc1 (configuration not stated) the results were H5N1 CPE 0.7.
Screening CC1CC(C)CN(CC(=O)N2CCc3[nH]c4ccccc4c3C2)C1 (configuration not stated) returned H5N1 CPE inactive.
`Cn1c(N)c(C(=O)COC(=O)C2=COCCO2)c(=O)n(C)c1=O` gave H5N1 CPE 2.5.
COC(=O)c1nnn(-c2nonc2N)c1-c1cccs1 was read as H5N1 CPE 1.6.
Screening Cc1ccc(CCNC(=O)C2CCN(c3nn4c(=O)cc(C)nc4s3)CC2)cc1 returned H5N1 CPE 0.4.
COC(=O)c1ccccc1NC(=O)Nc1cccnc1 was read as H5N1 CPE 0.4.
Screening COc1cc(/C=C(/C(=O)c2cccs2)c2nc3ccccc3[nH]2)ccc1O returned H5N1 CPE 1.6.
`CC(C)(C)CC(C)(C)c1ccc(O)c(CN2CCN(CCC#N)CC2)c1` gave H5N1 CPE inactive.
O=[N+]([O-])c1nn(-c2ccc3c(c2)OCCO3)n(O)c1=Nc1ccc(Cl)cc1 was read as H5N1 CPE inactive.
For COc1ccc(NC(=O)CN(c2cc(C)cc(C)c2)S(=O)(=O)c2c(C)noc2C)cc1OC the results were H5N1 CPE inactive.
For c1nc2nc3c(c(N4CCOCC4)n2n1)CCCC3 the results were H5N1 CPE 0.8.
Screening COc1ccc(NC(=O)CSc2nnc(Cc3cccn3C)n2-c2ccc(F)cc2)cc1 returned H5N1 CPE 0.2.
Screening C=CCOC(=O)C1=C(C)NC(SC)=C(C#N)C1c1cccs1 (configuration not stated) returned H5N1 CPE 0.7.
Screening COc1cc2c(cc1OC)CN(C(=O)CSc1n[nH]c(N)n1)CC2 returned H5N1 CPE inactive.
Cc1cc(NC(=O)c2noc3c2CCCC3)n(-c2ccccc2)n1 was read as H5N1 CPE 0.1.
`O=c1nc2n(c3sc4c(c13)CCCC4)C(CBr)CS2` (configuration not stated) gave H5N1 CPE 5.6.
For COc1ccc(OC)c(C(=O)CSc2nnc(Cc3cccs3)n2CCc2ccccc2)c1 the results were H5N1 CPE 0.2.
`Cn1nc(C(=O)NCCN2CCOCC2)c2ccccc2c1=O` gave H5N1 CPE inactive.
`Cc1ccc(-c2cc(C(=O)NN=C3CCCC3)c3ccccc3n2)cc1` gave H5N1 CPE inactive.
For CCOC(=O)Cn1ncc(-c2ccccc2)c1N the results were H5N1 CPE inactive.
Screening CSc1nsc(SC)c1NC(=O)N1CCCCC1 returned H5N1 CPE inactive.
`Cc1ccc2nc3c(nc2c1)-c1ccccc1C3=O` gave H5N1 CPE inactive.
CC(C)Nc1nc(NC(C)C)nc(C(N)=O)n1 was read as H5N1 CPE inactive.
CC(=O)NC(NC(=S)Nc1ccc(N=Nc2ccccc2C)cc1C)C(Cl)(Cl)Cl (configuration not stated) was read as H5N1 CPE 1.2.
Screening COc1ccccc1NC(=O)CCC(=O)Nc1nnc(C(F)(F)F)s1 returned H5N1 CPE inactive.
O=C(Nc1nc2ccccc2s1)C1CCCN1S(=O)(=O)c1ccc(Cl)cc1 (configuration not stated) was read as H5N1 CPE inactive.
For C=CCn1c(CNc2ccc(C)cc2)nnc1SCC(=O)N/N=C/c1ccc(O)cc1 the results were H5N1 CPE inactive.
Screening Nc1cc(Cl)c(N)cc1Cl returned H5N1 CPE 1.5.
CCOC(=O)N1CCN(C(=O)c2ccccc2Oc2ccccc2)CC1 was read as H5N1 CPE 0.3.
Screening CCC(=O)Nc1cc(Cl)ccc1N1CCN(C(=O)CC)CC1 returned H5N1 CPE 1.3.
COc1cc(N)ccc1NC(=O)c1cccs1 was read as H5N1 CPE 0.4.
For CCN(CC)CCCCOc1ccccc1OC the results were H5N1 CPE 0.9.
Screening COc1ccc(C(=O)N2CCN(C(=O)Cc3ccccc3)CC2)cc1OC returned H5N1 CPE 1.3.
COC(=O)C1=C(O)/C(=C\c2cc(C)n(-c3ccccc3C)c2C)N=C1C was read as H5N1 CPE 2.1.
For COCC(=O)Nc1nc2ccc(C)cc2s1 the results were H5N1 CPE 1.0.
Screening CCCCOc1ccc(C(=O)Nc2ccc(S(=O)(=O)Nc3cc(C)on3)cc2)cc1OC returned H5N1 CPE 0.3.
`CCOC(=O)c1ccc(NC(=O)NC2CC3CCC(C2)N3Cc2nnnn2C(C)(C)C)cc1` (configuration not stated) gave H5N1 CPE 0.7.
Screening Cc1ccc(C)c(N2CCN(CC3CC=CCC3)CC2)c1 (configuration not stated) returned H5N1 CPE 1.6.
Screening O=C(Nc1ccccc1Cl)N1CCN(c2ncccn2)CC1 returned H5N1 CPE inactive.
O=C(NCc1ccccc1Cl)c1cnccn1 was read as H5N1 CPE inactive.
For COc1ccc(Oc2c(C=O)c3ccccc3n2C)cc1 the results were H5N1 CPE inactive.
`Cn1c(=O)c2ncn(CC(=O)NCCC3=CCCCC3)c2n(C)c1=O` gave H5N1 CPE 1.0.
CC1(C)CC(=O)C2=C(C1)N(c1ccccc1)C(=O)CC2c1ccsc1 (configuration not stated) was read as H5N1 CPE 1.0.
`CCOc1ccc(C(=O)C2CCN(CC(=O)Nc3ccccc3N3CCOCC3)CC2)cc1` gave H5N1 CPE 12.
O=C(Nc1cccc(-c2nnc(-c3ccccc3)o2)c1)c1ccc(Br)o1 was read as H5N1 CPE inactive.
CCOc1cc(CNCc2cccs2)cc(Br)c1OCC was read as H5N1 CPE inactive.
Screening CCCC(c1nnnn1CCOC)N1CCN(c2cccc(OC)c2)CC1 (configuration not stated) returned H5N1 CPE 0.1.
`Cc1nc(-n2nnc3cc(C)c(C)cc32)c2c3c(sc2n1)CCCC3` gave H5N1 CPE 0.6.
`CSc1ncc(/C=C2/C(=O)NC(=O)N(C)C2=O)cn1` gave H5N1 CPE 1.1.
For N#CC1=C2SCN(c3ccccc3)CN2C(=O)CC1c1c(Cl)cccc1Cl (configuration not stated) the results were H5N1 CPE inactive.

Of the compounds above, these contain a tert-butyl group:
`CC(C)(C)CC(C)(C)c1ccc(O)c(CN2CCN(CCC#N)CC2)c1` gave H5N1 CPE inactive.
`CCOC(=O)c1ccc(NC(=O)NC2CC3CCC(C2)N3Cc2nnnn2C(C)(C)C)cc1` (configuration not stated) gave H5N1 CPE 0.7.

(cont.)
`CC(C)c1nnc(SCc2ccc(CSc3nnc(C(C)C)n3N)cc2)n1N` gave H5N1 CPE 0.4.
CC1CCCCC1NC(=O)C1Cc2ccccc2CN1S(C)(=O)=O (configuration not stated) was read as H5N1 CPE inactive.
`O=C(c1ccncc1)N(Cc1cc2ccccc2[nH]c1=O)C1CCCCC1` gave H5N1 CPE 0.8.
`CC(C)Nc1nnc(SCC(=O)Nc2ccc(F)cc2)s1` gave H5N1 CPE inactive.
For CCCC(C)C(=O)NC1CCSC1=O (configuration not stated) the results were H5N1 CPE inactive.
`O=S(=O)(N/N=C/c1ccc(Cl)cc1)c1ccc(Cc2ncc(C(F)(F)F)cc2Cl)s1` gave H5N1 CPE 0.4.
`CCCC(=O)NC(Nc1ccccc1F)C(Cl)(Cl)Cl` (configuration not stated) gave H5N1 CPE inactive.
`O=C(CN1CCCCC1)N1c2ccccc2CCc2ccccc21` gave H5N1 CPE inactive.
For c1ccc(CN2CCOCC2)cc1 the results were H5N1 CPE 0.2.
`CCOc1cc(/C=N/NC(=O)c2cc(C)[nH]n2)ccc1OC(=O)c1ccc([N+](=O)[O-])cc1` gave H5N1 CPE 1.0.
For CSCC[C@H](NC(=O)Nc1ccc(C)cc1)C(=O)O the results were H5N1 CPE inactive.
For O=C(O)Cc1ccc2ocnc2c1 the results were H5N1 CPE inactive.
For CCC1SC2=NCN(c3ccccc3)CN2C1=O (configuration not stated) the results were H5N1 CPE 0.1.
`CC1=C(C(=O)Nc2ccccc2)C(c2cccc([N+](=O)[O-])c2)Nc2nc3ccccc3n21` (configuration not stated) gave H5N1 CPE inactive.
`Cn1c(C(=O)NCC2CCCO2)cc2c(=O)n3ccccc3nc21` (configuration not stated) gave H5N1 CPE inactive.

Retrieved by structure from the entries so far:
CC1CCCCC1NC(=O)C1Cc2ccccc2CN1S(C)(=O)=O (configuration not stated) was read as H5N1 CPE inactive.
For CCC1SC2=NCN(c3ccccc3)CN2C1=O (configuration not stated) the results were H5N1 CPE 0.1.
For O=C(O)Cc1ccc2ocnc2c1 the results were H5N1 CPE inactive.

The list goes on:
COc1cccc(C(=O)Nc2ccc(N3CCCC3)cc2)c1 was read as H5N1 CPE inactive.
For COc1cc(NC(=O)c2ccc(-c3ccc(Br)cc3)o2)ccc1NC(=O)C(C)C the results were H5N1 CPE inactive.
For O=C(CSCc1cccc(CSCC(=O)Nc2ccccc2)n1)Nc1ccccc1 the results were H5N1 CPE inactive.
`Cc1cc(C(=O)Oc2ccccc2C(=O)O)c(C)o1` gave H5N1 CPE inactive.
`CN(c1ccc(C(=O)N2CCOCC2)cc1[N+](=O)[O-])C1CCCCC1` gave H5N1 CPE 2.9.
For CCCC(=O)N1CCN(c2ccc(NC(=O)c3ccco3)cc2)CC1 the results were H5N1 CPE 1.0.
`CCn1cc(C(=O)NCc2ccc(C)o2)c2cc(OC)c(OC)cc2c1=O` gave H5N1 CPE 2.4.
Screening CCCC(=O)NC(=S)Nc1ccc(NC(=O)c2cccs2)cc1 returned H5N1 CPE 9.3.
For COc1ccc(NC(=O)CNS(=O)(=O)c2ccccc2)cc1Cl the results were H5N1 CPE inactive.
c1ccc(-c2nnc(-c3ccccc3)o2)cc1 was read as H5N1 CPE 1.6.
CSC1=NCCN1C(=O)COc1ccccc1 was read as H5N1 CPE 1.5.
`CCC(=O)c1ccc(OCCSc2ncccn2)cc1` gave H5N1 CPE inactive.
`Cc1ccc(C)c(NC(=S)c2ccccn2)c1` gave H5N1 CPE inactive.
Screening COc1ccc(C2CC(=O)C=C(NCC3CCCO3)C2)cc1 (configuration not stated) returned H5N1 CPE 0.4.
Screening C1=CC2CC1CC2CNCc1ccco1 (configuration not stated) returned H5N1 CPE 0.7.
CCOC(=O)C1CCCN(C(=O)c2ccccc2NC(C)=O)C1 (configuration not stated) was read as H5N1 CPE 0.9.
`O=C(O)CSCc1ccc(C(=O)O)o1` gave H5N1 CPE inactive.
For CCOc1ccc(/C=N/Nc2nc(N3CCCC3)nc(N3CCCC3)n2)cc1OC the results were H5N1 CPE inactive.
For O=c1[nH]c(-c2ccccc2O)nc2c1CCCC2 the results were H5N1 CPE 11.
`CCn1c(C)[n+](CCOCC[n+]2c(C)n(CC)c3cc(Cl)c(Cl)cc32)c2cc(Cl)c(Cl)cc21` gave H5N1 CPE inactive.
For Cc1ccc(-c2nnc(SCC(=O)N3CCCC3)o2)cc1C the results were H5N1 CPE inactive.
Screening COc1cc(NC(=S)Nc2ccc(S(=O)(=O)N3CCOCC3)cc2)cc(OC)c1OC returned H5N1 CPE 0.2.
`CCc1nnc(NC(=O)C2CCCN(S(=O)(=O)c3ccccc3)C2)s1` (configuration not stated) gave H5N1 CPE 2.4.
COc1ccccc1-c1nc(C#N)c(NCc2ccc(F)cc2)o1 was read as H5N1 CPE 0.6.
Screening CCOc1cccc(C(=O)Nc2cc(-c3nn4c(C)nnc4s3)ccc2C)c1 returned H5N1 CPE inactive.
`COc1ccccc1-n1c2c(cc(C(=O)N3CCC(C)CC3)c1=O)C(=O)CC(C)(C)C2` gave H5N1 CPE 0.8.
For CCC(C)(C)NC(=O)C(c1ccccc1F)N(Cc1ccco1)C(=O)Cn1nnc2ccccc21 (configuration not stated) the results were H5N1 CPE 0.4.
For COC(=O)c1cc(Br)c(=O)n(Cc2ccco2)c1 the results were H5N1 CPE 2.5.
C=CCSc1nc(N)c(C(=O)Nc2ccccc2OC)cc1C(=O)Nc1ccccc1 was read as H5N1 CPE 0.3.
`Cc1cc(C)n(-c2nc(NCc3cccnc3)c3c4c(sc3n2)COC(C)(C)C4)n1` gave H5N1 CPE 1.1.
COc1ccc(NC(=O)CSc2nc(NS(=O)(=O)c3ccccc3)cc(=O)[nH]2)cc1 was read as H5N1 CPE inactive.
For CCC1CCc2c(sc(NC(=O)c3ccoc3C)c2C(N)=O)C1 (configuration not stated) the results were H5N1 CPE inactive.

Compounds listed so far containing a cyano group (5):
For CCOc1ccc(-c2nc(C#N)c(NCC(C)C)o2)cc1 the results were H5N1 CPE inactive.
`CC(C)(C)CC(C)(C)c1ccc(O)c(CN2CCN(CCC#N)CC2)c1` gave H5N1 CPE inactive.
Screening C=CCOC(=O)C1=C(C)NC(SC)=C(C#N)C1c1cccs1 (configuration not stated) returned H5N1 CPE 0.7.
For N#CC1=C2SCN(c3ccccc3)CN2C(=O)CC1c1c(Cl)cccc1Cl (configuration not stated) the results were H5N1 CPE inactive.
COc1ccccc1-c1nc(C#N)c(NCc2ccc(F)cc2)o1 was read as H5N1 CPE 0.6.

Part of the list above in order of molar mass, lowest first.
`CSc1ncc(/C=C2/C(=O)NC(=O)N(C)C2=O)cn1` gave H5N1 CPE 1.1.
For O=C(/C=C/c1cccc2ccccc12)NCCC1=CCCCC1 the results were H5N1 CPE 1.1.
`CCOc1cc(/C=N/NC(=O)c2cc(C)[nH]n2)ccc1OC(=O)c1ccc([N+](=O)[O-])cc1` gave H5N1 CPE 1.0.
